Cruzain inh Det = qHTS Assay for Promiscuous and Specific Inhibitors of Cruzain (with detergent). purified cruzain, Z-FR-AMC fluorescence, 0.01% Triton. Potency, µM, for inactives: max response, negative = inhibition, actives largely listed as inhibitors. actives 0.43% (n = 200,000). AID 1478, 2009; active means well fitted curve in the direction sought with a large enough effect; inconclusive means small, poorly fitted or top-dose-only effect, or another doubt; inactive means no such curve, though single readings can be large; an effect the other way counts as inactive or inconclusive;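 further: plate controls were neutral wells for no effect and buffer without enzyme for full effect; nearly all actives have a fitted effect of over 40% in size; top concentration of the series not given in the record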
Target sequence (P25779 123-467 limits assumed): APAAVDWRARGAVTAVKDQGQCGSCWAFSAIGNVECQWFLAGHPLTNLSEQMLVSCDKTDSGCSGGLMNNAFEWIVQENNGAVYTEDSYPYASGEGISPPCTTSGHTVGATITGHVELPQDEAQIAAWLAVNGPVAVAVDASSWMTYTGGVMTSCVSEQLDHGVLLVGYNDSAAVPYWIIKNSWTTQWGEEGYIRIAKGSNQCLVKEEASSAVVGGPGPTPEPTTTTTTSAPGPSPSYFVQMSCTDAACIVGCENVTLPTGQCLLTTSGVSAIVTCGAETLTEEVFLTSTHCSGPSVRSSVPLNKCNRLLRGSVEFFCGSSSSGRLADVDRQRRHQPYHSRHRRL
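Cysteine protease activity tested under reducing, mildly acidic conditions (100 mM sodium acetate pH 5.5, 5 mM DTT) plus 0.01% Triton X-100. Cruzain 1.5 nM; substrate Z-FR-AMC 2 uM; 15 min compound preincubation at room temperature.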
SARS PLpro yeast = qHTS of Yeast-based Assay for SARS-CoV PLP; S. cerevisiae expressing SARS-CoV PLpro, growth rescue; control for the full effect not named in the record; Potency, µM (series often up to 32.9 µM), for the others: at the top dose activity, positive = growth rescue; actives 0.19% (n = 330,000); AID 485353, 2010; further: 0% is about no effect; nearly all actives have a fitted effect of over 55% in size; growth read by luminescence after 48 h
Cruzain noTriton = qHTS Assay for Promiscuous and Specific Inhibitors of Cruzain (without detergent) | AID 1476, 2009 | Potency, µM, without a hit: max response, negative = inhibition, most hits filed as inhibitors | actives 2.3% (n = 200,000) | Cruzipain (Trypanosoma cruzi), P25779 | purified cruzain, Z-FR-AMC fluorescence, no detergent; active means well fitted curve in the direction sought with a large enough effect; inconclusive means small, poorly fitted or top-dose-only effect, or another doubt; inactive means no such curve, though single readings can be large; an effect the other way counts as inactive or inconclusive;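 further: plate controls were enzyme without inhibitor for no effect and buffer without enzyme for full effect; nearly all actives have a fitted effect of over 40% in size; top concentration of the series not given in the record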
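Detergent-free condition (0.00005% Triton X-100) in acetate buffer pH 5.5 with DTT. 1.5 nM enzyme and compound were pre-mixed 15 min, then 2 uM Z-FR-AMC substrate added; reaction progress from fluorescence change between first and third reads (60 s).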
MARV entry inh = qHTS for inhibitors of binding or entry into cells for Marburg Virus. Marburg virus pseudotyped entry inhibition, cell reporter; control for the full effect not named in the record; about a third of the inactives were read at about 46 µM. Potency, µM (top dose mostly 37.8 µM), without a hit: top-dose activity change, negative = inhibition, hits mostly inhibitors. actives 1.8% (n = 300,000). AID 540276, 2011; active = well fitted inhibition curve with a large enough effect; inconclusive = small, poorly fitted or top-dose-only effect, or effect the other way; inactive = flat fitted curve, though single readings scatter; tested in HEK293 cells; about a fifth of its hits are not listed in these tables; further: on the % scale 0 is the no-effect control and ±100 the full control effect; luciferase read-out
LASV entry inh = qHTS for Inhibitors of binding or entry into cells for Lassa Virus; Potency, µM (series often up to 37.9 µM), for the others: at the highest dose activity change, negative = inhibition, actives largely listed as inhibitors; Lassa virus pseudotype entry inhibition, cell reporter; control for the full effect not named in the record; actives 1.2% (n = 300,000); active means well fitted inhibition curve with a large enough effect; inconclusive means small, poorly fitted or top-dose-only effect, or effect the other way; inactive means flat fitted curve, though single readings scatter; tested in HEK293 cells; further: on the % scale 0 is the no-effect control and ±100 the full control effect; nearly all actives have a fitted effect of over 50% in size; luciferase read-out
RE007 growth inh = qHTS Assay for Inhibitors of the HIV-1 protein Vpr; S. pombe RE007 Vpr strain, BacTiter-Glo ATP luminescence, 24 h; control for the full effect not named in the record; Potency, µM (series often up to 92.2 µM), inactives show at the top dose activity change, negative = less growth; actives 0.21% (n = 360,000); AID 651644, 2012; active = well fitted falling curve with a large enough effect; inconclusive = small, poorly fitted or top-dose-only effect; inactive = no such curve, though single readings can be large or run the other way;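 further: on the % scale 0 is the no-effect control and ±100 the full control effect; nearly all actives have a fitted effect of over 50% in size; the assay follows cell death caused by Vpr and the record does not say whether a fall means rescue or toxicity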
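Fission yeast strain RE007, carrying one chromosomally integrated HIV-1 vpr copy, was seeded at OD 0.01 in PMG+AL medium with 23 nL pinned compound. After 24 h at 30 °C and 99% humidity, viability was read by BacTiter-Glo luminescence.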
StopGo reporter = High Throughput Screening for Foot and Mouth Disease Virus Antivirals; human cells with a luciferase reporter of 2A StopGo recoding; control for the full effect not named in the record; Potency, µM (top dose mostly 57.9 µM), for the others: at the highest dose signal change, negative = less light; actives 1.2% (n = 410,000); AID 1159524, 2015; active = well fitted falling curve with a large enough effect; inconclusive = small, poorly fitted or top-dose-only effect; inactive = no such curve, though single readings can be large or run the other way; tested in HEK293T cells; further: on the % scale 0 is the no-effect control and ±100 the full control effect; nearly all actives have a fitted effect of over 45% in size; luciferase light after 4 h
NS1 inh = qHTS Assay for Inhibitors of Influenza NS1 Protein Function; AID 2326, 2010; actives 0.4% (n = 270,000); S. cerevisiae slowed by influenza A NS1, growth recovery by OD600; Potency, µM (series often up to 46.1 µM), inactives show top-dose activity, positive = more growth; further: actives are rising curves; nearly all actives have a fitted effect of over 50% in size
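A cell-based growth assay was used: compounds that relieve NS1-induced slow growth of budding yeast raise OD600. Assay medium was yeast nitrogen base with ammonium sulphate and -URA supplement, pH 6.0, with 2% galactose.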
* = called active by the depositor; ? = inconclusive; . = no result given; & = joins results of further samples; [ ] = remark or other dose. Unless noted, the call rests on the fitted dose curve; in most records, active means well fitted rising curve with a large enough effect; inconclusive means small, poorly fitted or top-dose-only effect; inactive means no such curve, though single readings can be large or run the other way. Potency means the concentration at half of the fitted maximal effect.

entry | canonical_smiles | MARV entry inh | LASV entry inh | Cruzain inh Det | SARS PLpro yeast | NS1 inh | StopGo reporter | RE007 growth inh | Cruzain noTriton
1 | CC(=O)C(Cc1ccccc1)(Cc1ccccc1)C(C)=O | 6% | ? | . | -4% | 2% | -20% | 1% | .
2 | Cc1ccc(-c2nn3c(C)nnc3s2)cc1NC(=O)c1ccco1 | . | . | . | 1% | 10% | 9% | 14% | .
3 | Cc1ccc(S(=O)(=O)NC2CCCCCC2)cc1 | 7% | 0%[46.1 µM] | . | -13% | . | 48%[activator] | -3% | .
4 | O=C(Oc1ccc(C(=S)N2CCOCC2)cc1)c1ccccc1F | . | . | . | -2% | -2% | -3% | 8% | .
5 | CCOC(=O)c1ccc(Nc2c(OCC)c(=O)c2=O)cc1 | -24% | ? | . | 3% | 3% | -8% | -4% | .
6 | CCn1cc(C(=O)N2CCN(c3ccccc3F)CC2)c(=O)c2ccc(C)nc21 | . | . | . | 1% | 3% | 2% | 5% | .
7 | Cc1ccc(-n2c(Cc3ccccc3)n[nH]c2=S)cc1 | 16% | 11% | -4.5% | 6% | 5% | 6% | 7% | 4%
8 | CCOc1ccc(CCNC(=O)c2cccc(S(=O)(=O)N3CC(C)OC(C)C3)c2)cc1OCC (stereo not given) | ? | -26% | . | 0% | . | ? | 1% | .
9 | Cc1ccc(NC(=S)NC(=O)C2CCCC2)cc1C | ? | ? | . | -2% | 5% | 29% | ? | .
10 | CC(C)(C)N=C1NN=C(c2cc3ccccc3o2)CS1 | ? | ? | -9.3% | -8% | 0% | -41% | 4% | -13%
11 | CCc1n[nH]c(=O)n1Cn1c(CC)n[nH]c1=O | -4% | 24% | -5.2% | 2% | -5% | -4% | 18% | -2%
12 | Nc1cccc2c1C(=O)N(C(=O)c1ccc(S(=O)(=O)N3CCCCCC3)cc1)C2=O | -29% | 0% | -11% | -2% | -33% | -3% | 0% | -19%
13 | C=CCOn1c(=O)c(-c2ccccc2)[n+]([O-])c2ccccc21 | 0%[46.1 µM] | 0% | . | 5% | . | -3% | -6% | .
14 | Cc1ccc(NC(=O)C2CCN(C(=O)c3ccccc3C)CC2)cc1 | -2% | 7% | 0.5% | 24% | -1% | -20% | -4% | 2%
15 | CSc1ccc(/C=C/C(=O)OCC(=O)N2CCCCCC2)cc1 | 13% | 5% | . | 8% | . | 8% | -9% | .
16 | COc1ccc(CNS(=O)(=O)c2ccc(-n3cnnn3)c(C)c2)cc1 | ? | -10%[46.1 µM] | . | 0% | -1% | 29% | 3% | .
17 | CCOC(=O)c1c(C)[nH]c(C(=O)COC(=O)C2=NNC(=O)CC2)c1C | 4%[46.1 µM] | -5%[46.1 µM] | . | 2% | . | 0% | 9% | .
18 | O=C(N1CCCC1)C(F)(F)Oc1ccc(F)cc1 | 21%[46.1 µM] | 9%[46.1 µM] | . | 0% | -5% | 33%[activator] | -9% | .
19 | CCOc1ccc(C(Nc2ccc(C)cc2)P2(=O)OCCCO2)cc1 (stereo not given) | 16% | -14% | 2.6% | 9% | 2% | -11% | -8% | ?
20 | O=C(NC1C(=O)NNC1c1ccccc1)c1ccc(F)cc1 (stereo not given) | 3% | -3% | -1.7% | 7% | -2% | 28% | 4% | -6%
21 | CCN(c1ncnc2c1c(-c1ccccc1)cn2-c1ccccc1)C1CCCCC1 | . | -17%[46.1 µM] | -0.1% | . | . | -18% | . | 12%
22 | COc1ccc(Cn2c(C(=O)O)c(CNCc3ccc(SC)cc3)c3ccc(OC)cc32)cc1 | . | ? | -9.7% | . | . | ? | . | 4%
23 | COc1ccc(-c2ccc(NS(=O)(=O)c3cccc(C)c3)cc2)nn1 | . | -6%[46.1 µM] | -3.7% | . | . | 23% | . | 0%
24 | O=C(Nc1cccc(S(=O)(=O)c2cccc(NC(=O)C3CC3)c2)c1)C1CC1 | ? | 21µM* | -3.4% | 5% | 3% | . | 1% | -11%
25 | Cc1ccc(-n2c(=O)cc(N3CCN(Cc4ccccc4)CC3)[nH]c2=O)cc1 | . | . | -3.4% | 9% | 21% | 0% | 0% | 2%
26 | COc1nc(OCC#N)nc(N2CCCCC2)n1 | -7% | -3% | . | -2% | . | -13% | -4% | .
27 | Cc1ccc(OCC(=O)NNC(=S)NC(=O)c2ccc(Br)o2)c(C)c1 | . | . | . | 1% | 9% | 2% | 5% | .
28 | Cc1cc(C)nc(NC(=O)c2ccc(Cl)c([N+](=O)[O-])c2)n1 | 11%[14.2 µM] | 3% | . | -1% | 11% | -16% | -6% | .
29 | Cc1oc2c(O)c(O)ccc2c(=O)c1-c1ccccc1 | . | . | . | 3% | -2% | -16% | -3% | .
30 | COc1ccc2c(c1OC)c(=O)n1c3ccc(OC(C)C(=O)NCCCN4CCOCC4)cc3c3ccnc2c31 (stereo not given) | . | . | . | -7% | -15% | ? | -23% | .
31 | Cc1ccc(CCN2CC(C(=O)NCCN(C)C)CC2=O)cc1 (stereo not given) | 16%[46.1 µM] | -7%[46.1 µM] | . | 1% | 0% | -3% | -6% | .
32 | CC(C)NC(=O)c1cnc(N2CCN(c3ccccn3)CC2)c2ccccc12 | ? | ? | -0.3% | -3% | -13% | ? | 10% | 9%
33 | CCOC(=O)c1csc(-n2nc(C)cc2C(F)(F)F)n1 | 0%[46.1 µM] | ? | . | 1% | 1% | 13% | -11% | .
34 | COC(=O)c1ccsc1NC(=O)C1=COCCO1 | -8% | . | 0.5% | 1% | -8% | -19% | -8% | -6%
35 | O=C(NC1CCCCCC1)C1CCC(=O)N(Cc2ccccc2F)C1 (stereo not given) | -2% | -6% | . | 2% | -5% | 27% | 15% | .
36 | CCOc1ccc(S(=O)(=O)N2CCCC(C(=O)Nc3ccccc3)C2)cc1 (stereo not given) | -15%[46.1 µM] | -27% | . | 0% | -7% | 0% | 5% | .
37 | C=C1C(=O)O[C@@H]2[C@H]1[C@@H](OC(=O)/C(C)=C/C)C/C(C)=C\C(=O)/C=C(\C)[C@@H]2O | . | . | . | -1% | -2% | 28µM* | -1% | .
38 | Cc1ccc(S(=O)(=O)N(CC(=O)NCC2CCCO2)Cc2ccc(F)cc2)cc1 (stereo not given) | 0% | -11% | . | -2% | -13% | 5% | ? | .
39 | COc1cc(OC)cc(N(C(=O)c2ccco2)C(C(=O)NC2CCCC2)c2ccc(N(C)C)cc2)c1 (stereo not given) | -25%&-25% | -27% | -3.4% | 2% | -8% | -10% | -1% | 13%
40 | CC(CNc1ccc(Cl)cc1)(CNc1ccc(Cl)cc1)[N+](=O)[O-] | -6%[46.1 µM] | 4%[46.1 µM] | . | . | . | -7% | -20% | .
41 | CC1(C)CC(CCNS(=O)(=O)c2ccccc2)(c2ccccc2)CCO1 (stereo not given) | -10% | -7% | -5.1% | 25% | -13% | -9% | -7% | 6%
42 | S=C(Nc1ccc(Cl)c(Cl)c1)NC1CCN(Cc2ccccc2)CC1 | ? | ? | -5.4% | -1% | -8% | 14µM* | -3% | 3%
43 | O=C(C[n+]1ccccc1)N1CCCc2ccccc21 | . | . | . | 0% | 4% | -3% | 6% | .
44 | Cc1nnc(SCC(=O)Nc2ccccc2N2CCOCC2)s1 | ? | 2% | 0.2% | 8% | 3% | -13% | 12% | -13%
45 | Cc1ccccc1CSc1nc(-c2ccccc2)nc2c1Cc1c(CO)cnc(C)c1O2 | . | 30%[46.1 µM] | -2.8% | . | . | 4% | . | -5%
46 | Cc1ccc(/C=C/C(=O)N2CCN(S(=O)(=O)c3cccs3)CC2)o1 | . | . | . | 2% | ? | -10% | 1% | .
47 | Cc1nn(-c2ccccc2)c(Cl)c1/C=N/NC(=O)c1ccc(CNc2ccccc2)o1 | 15% | ? | -2.7% | 7% | 14% | 11% | -4% | -26%
48 | Cc1[nH]c2ccccc2c1/C=N/NC(=S)NCc1ccccc1 | -2% | ? | . | 1% | . | -4% | -18% | .
49 | CCCCOc1ccc(-c2nc(SCC(N)=O)n[nH]2)cc1 | 3% | ? | 2.3% | 5% | -2% | 62%[activator] | 1% | 2%
50 | O=C(CCSCCc1ccccn1)Nc1ccc(Cl)cc1 | . | -25%[46.1 µM] | -1.5% | . | . | -16% | . | 0%
51 | CCN(C(=O)COc1ccc(C(C)=O)cc1)c1cccc2ccccc12 | 2% | 2% | . | -7% | . | ? | 3% | .
52 | CC(=O)Nc1ccc(S(=O)(=O)NC2(C(F)(F)F)N=C(c3ccccc3)NC2=O)cc1 (stereo not given) | 5% | -11% | -2.7% | 0% | -14% | 17% | -7% | 0%

Bioassay records as filed in PubChem.
